# USP2a inh: inhibitors of human ubiquitin-specific protease USP2a | USP2 core, Ub-CHOP2 coupled fluorogenic reporter, 485/531 | 330,000 tested, 0.01% active | AID 463254 | Potency, µM (titrated, usually from 38.3 µM), for inactives: at the highest dose activity change, negative = inhibition, most hits filed as inhibitors | O75604;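 also: potency is read from the fitted curve at half-maximal effect; plate controls were DMSO wells for no effect and full inhibition by NEM control for full effect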
# Target sequence (O75604 whole entry, looked up): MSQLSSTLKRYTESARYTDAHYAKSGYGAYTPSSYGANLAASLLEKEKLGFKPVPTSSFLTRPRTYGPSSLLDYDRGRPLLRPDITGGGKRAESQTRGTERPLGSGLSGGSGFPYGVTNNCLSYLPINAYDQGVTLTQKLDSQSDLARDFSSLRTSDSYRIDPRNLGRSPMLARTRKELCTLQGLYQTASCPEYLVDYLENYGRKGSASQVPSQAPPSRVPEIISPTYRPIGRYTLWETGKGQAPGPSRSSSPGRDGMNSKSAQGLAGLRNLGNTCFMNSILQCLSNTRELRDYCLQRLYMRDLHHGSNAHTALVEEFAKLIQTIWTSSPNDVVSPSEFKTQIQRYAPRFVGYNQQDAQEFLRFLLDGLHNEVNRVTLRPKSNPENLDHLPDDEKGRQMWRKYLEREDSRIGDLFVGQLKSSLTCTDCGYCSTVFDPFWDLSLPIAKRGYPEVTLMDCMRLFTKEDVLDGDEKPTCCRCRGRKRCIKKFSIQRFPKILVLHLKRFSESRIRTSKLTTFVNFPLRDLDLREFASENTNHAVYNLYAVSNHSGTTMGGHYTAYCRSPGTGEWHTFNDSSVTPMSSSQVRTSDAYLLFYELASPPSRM
#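 Deubiquitinase activity read as fluorescence (485/531 nm) after Ub-CHOP2 cleavage activates the enterokinase reporter on its substrate; USP2 core 10nM, Ub-CHOP2 and substrate 25nM each, 30min compound preincubation then 60min RT; data normalized to NEM, curves fitted.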
# ASM inhibitor: blocks human secretory acid sphingomyelinase. placental ASM, HMU-PC fluorogenic substrate, 60 min. AID 504937. 340,000 tested, 0.006% active. Potency, µM (highest dose often 57.5 µM), inactives show top-dose activity change, negative = inhibition, most hits filed as inhibitors; also: potency is read from the fitted curve at half-maximal effect
#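 Fluorogenic HMU-PC substrate (9 uM final) is turned over by placental ASM in 60 min at 37 C after a 10 min compound preincubation. Reaction ended by alkaline stop (pH 10), with fluorescence read at 386/447 nm.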
# Menin MLL FP TR: menin-MLL binding inhibition, Texas Red mutant peptide; Menin + Texas Red MLL mutant peptide, fluorescence polarization; Potency, µM (doses to about 61.6 µM), for inactives: at the highest dose FP activity change, negative = inhibition, usual class: inhibitors; 270,000 tested, 0.23% active; AID 1768; active = well fitted inhibition curve with a large enough effect in the polarisation, with a control signal flat, not every such curve was filed as active; inconclusive = small, poorly fitted or top-dose-only effect, or effect the other way, or a change in a side signal; inactive = no such curve, though single readings can be large or run the other way; the % refers to the polarisation; also: potency is read from the fitted curve at half-maximal effect; % of control where 0% means no effect; many of its hits are not listed in these tables
# MBNL1-CUG inh: blocks human MBNL1 binding to CUG repeat RNA; Q9NR56; TR-FRET MBNL1-His/biotin-(CUG)12 binding, 665/545 ratio; Potency, µM (doses to about 57.5 µM), for inactives: top-dose activity change, negative = inhibition, actives largely listed as inhibitors; 280,000 tested, 0.036% active; AID 2675; active = well fitted inhibition curve with a large enough effect in the signal ratio, with a control signal flat, not every such curve was filed as active; inconclusive = small, poorly fitted or top-dose-only effect, or effect the other way, or a change in a side signal; inactive = no such curve, though single readings can be large or run the other way; the % refers to the signal ratio; also: potency is read from the fitted curve at half-maximal effect; % is scaled to controls: 0 for no effect and ±100 for the full control effect
#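 Compounds (final 92 nM to 58 uM) are added to His-tagged MBNL1 and biotin-(CUG)12, then terbium anti-His antibody and streptavidin-XL665 (5 nM final). After 60 min at room temperature, the 665/545 nm ratio is read.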
# TSHR antagonist: human thyrotropin receptor antagonism; P16473; TSHR-expressing cells, TSH-stimulated cAMP HTRF, 2 h; hits give low values; activity change, negative = inhibition, % at 11.5 µM; 330,000 tested, 0.2% active;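 active = activity change below a set negative limit, meaning inhibition stronger than a set level, cut at about -70% in these data; inconclusive = activity change between two set negative limits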; also: % is scaled to controls: 0 for no effect and ±100 for the full control effect
#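 Cell-based HTRF cAMP assay; TSHR cells + compound, TSH EC80 (4nM final), 2 h, 37 deg C. Lysis with anti-cAMP cryptate and cAMP-d2, 30 min RT, read 665/620 nm.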
# Mito fusion act: inhibitors of mitochondrial division or activators of mitochondrial fusion; S. cerevisiae fusion-defective mutant growth rescue, CellTiterGlo 48 h; Potency, µM (highest dose often 46.1 µM), without a hit: at the highest dose growth rescue (activation), hits mostly activators; 320,000 tested, 0.23% active;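 also: potency is read from the fitted curve at half-maximal effect; % of control where 0% means no effect; nearly all actives have a fitted effect of over 45% in size; temperature-sensitive fusion mutants such as fzo1-1 at 37 °C on non-fermentable ethanol glycerol medium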
#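 Temperature-sensitive fusion-defective S. cerevisiae (e.g. fzo1-1, mgm1-5) were grown with compound in YPEG medium (3% ethanol, 3% glycerol) for 48 hours at 37C. Growth rescue was measured as viability by CellTiterGlo luminescence after 10 minutes at ambient.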
# GALK inhibitor: inhibitors of human galactokinase | Purified GALK, Kinase-Glo residual ATP luminescence | Potency, µM (series often up to 57.5 µM), for the others: top-dose activity change, negative = inhibition, most hits filed as inhibitors | 270,000 tested, 0.007% active | AID 1868; also: potency is read from the fitted curve at half-maximal effect; % is scaled to controls: 0 for no effect and ±100 for the full control effect
# Target sequence (P51570 whole entry, looked up): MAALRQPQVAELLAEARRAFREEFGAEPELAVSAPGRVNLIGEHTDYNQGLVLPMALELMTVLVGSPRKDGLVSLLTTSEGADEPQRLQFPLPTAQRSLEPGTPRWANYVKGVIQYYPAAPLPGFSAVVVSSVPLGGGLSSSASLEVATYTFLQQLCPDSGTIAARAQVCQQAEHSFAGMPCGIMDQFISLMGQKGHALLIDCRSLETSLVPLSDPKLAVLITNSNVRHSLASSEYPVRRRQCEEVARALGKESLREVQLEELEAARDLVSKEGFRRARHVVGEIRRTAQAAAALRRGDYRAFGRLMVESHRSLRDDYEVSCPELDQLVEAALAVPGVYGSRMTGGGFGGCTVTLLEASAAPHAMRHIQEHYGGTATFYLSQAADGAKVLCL
#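 Galactose (100 uM) and ATP (35 uM) were turned over by 5 nM GALK for 1 h at RT. Kinase-Glo Plus then converted the remaining ATP into a luminescent signal.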
# Eya2 phos inh: inhibitors of human Eya2 phosphatase activity | O00167 | recombinant Eya2, OMFP fluorescence dephosphorylation (OMFP is methylfluorescein phosphate) | Potency, µM (series often up to 76.9 µM), inactives show at the top dose activity, negative = inhibition, most hits filed as inhibitors | 330,000 tested, 0.006% active | AID 488837; also: potency is read from the fitted curve at half-maximal effect; % is scaled to controls: 0 for no effect and ±100 for the full control effect
#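 Eya2 (0.2 uM) preincubated 10 min at ambient with compound, then OMFP substrate added at 50 uM; 10 min reaction in 50 mM HEPES pH 7.5, 50 mM NaCl, 5 uM MgCl2, 0.05% BSA, 1 mM DTT. Fluorescence read at Ex 485/Em 525 nm.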
# hERG WT inh: inhibitors of human wildtype KCNH2 potassium channel; U2OS, BacMam KCNH2, thallium flux FluxOr; hits give low values; Q12809; activity change, % at 1.84 µM; 340,000 tested, 0.37% active;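 active = maximum activity change below -70%; inconclusive = maximum activity change between -70% and -50%; inactive = maximum activity change above -50%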; also: % is scaled to controls: 0 for no effect and ±100 for the full control effect
#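 U2OS cells transduced with wild-type KCNH2 virus are loaded with FluxOr dye for 45 min, and thallium flux is measured in kinetic reads before and after stimulation buffer. Rate constants are normalized to DMSO controls.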
# Chronic BCR inh: blocks chronic active B-cell receptor signaling; ABC-DLBCL IkBa-CBG/CBR reporter, luminescence ratio, 4 h; Potency, µM (highest dose often 46.1 µM), inactives show top-dose ratio change, negative = lower green/red ratio, most hits filed as inhibitors; 340,000 tested, 0.05% active; AID 493014; active = well fitted inhibition curve with a large enough effect in the signal ratio, with a control signal flat, not every such curve was filed as active; inconclusive = small, poorly fitted or top-dose-only effect, or effect the other way, or a change in a side signal; the % refers to the signal ratio;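 also: potency is read from the fitted curve at half-maximal effect; plate controls were basal doxycycline-induced cells for no effect and cells given 10 µM MG132 for full effect; MG132 reads +100%, hits lower the ratio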
#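 Cell line TMD8 (human ABC DLBCL), stably expressing tet-inducible CBG68-IkBa fusion and CBR; IMDM/0.5% FBS; cpd up to 46 uM; dox induction, 4 h, 37C/5% CO2; dual luminescence; green/red ratio; MG132 control.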
# * marks the source's active call; other numbers are inactive results; ? = inconclusive; . = not tested or not shown; & = joins results of further samples; [ ] = dose if it differs, or a comment. Unless noted, calls follow the shape of the dose curve; as a rule, active = well fitted curve in the direction sought with a large enough effect; inconclusive = small, poorly fitted or top-dose-only effect, or another doubt; inactive = no such curve, though single readings can be large; an effect the other way counts as inactive or inconclusive. Some of the compounds tested; count on the stated rates, not on these rows.
# Every second line gives: USP2a inh, ASM inhibitor, Menin MLL FP TR, MBNL1-CUG inh, TSHR antagonist, Mito fusion act, GALK inhibitor, Eya2 phos inh, hERG WT inh, Chronic BCR inh
- O=C(Cc1ccccc1)c1nnc(-c2ccccc2)o1
  2.7%, 0.7%, 7.4%, 0.9%, -0.7, -1.9%, -0.2%, -27.2%, 1.3, -6.7%
- O=c1ccc2cc(S(=O)(=O)Nc3ccc(Br)cc3)ccc2o1
  0.5%, -3.6%, 33.4%[activator], 0.8%, -9.9, 6.5%, -1.0%, -1.5%, 2.9, 2.7%
- COc1cc(OC)cc(-c2cc(N3C(=O)Nc4ccccc4N3O)n[nH]2)c1
  0.8%, 10.9%, -0.4%, -7.0%, -5.6, -4.5%, ., 2.7%, 3.9, -9.4%
- CC(Sc1nc2nn(-c3ccccc3)c(=O)c-2c2n1CCCCC2)C(N)=O (stereo not drawn)
  4.5%, -1.0%, ., ?, -18.8, 2.0%, -2.5%, 1.9%, 13.8, ?
- O=C(Cc1ccc([N+](=O)[O-])cc1)NCc1cccnc1
  0.5%, 3.3%, -5.1%, ?, 14.4, -0.2%, ., 3.4%, -3.4, 1.9%
- O=C(c1cc(-c2cccc(O)c2)on1)N1CCCC1
  -1.8%, -3.7%, 15.1%, -2.1%, -0.5, 8.8%, -3.2%, 0.8%, -227.7*, ?
- COc1ccc(NC(=O)c2sccc2C)c([N+](=O)[O-])c1
  1.9%, -3.1%, 11.5%, ?, -3.3, 0.7%, 5.1%, -12.8%, 1.3, -1.1%
- O=C(O)c1nccnc1C(=O)Nc1ccccc1N1CCOCC1
  2.5%, 2.6%, ., 0.6%, 7.1, -0.8%, ., -2.1%, -0.1, 4.4%
- O=C1[C@@H]2CSCN2C(=O)CN1Cc1ccc(F)cc1
  -2.6%, 2.3%, 1.2%, -0.9%, 6.6, 23.3%, -1.7%, 4.6%, 6.8, -2.9%
- Clc1ccc(-c2nc3ccccn3c2CN2CCSCC2)cc1
  0.5%, -1.7%, 0.0%, 4.8%, 24.9, -3.1%[9.22 µM], 2.9%, -11.5%, -5.0, 7.6%
- CCN(C(=O)c1ccc2c(OC)n(CC)nc2c1)c1ccc(OC)cc1
  -0.2%, 26.0%, 6.9%, 13.5%, 5.3, -3.0%, -3.6%, ?, ., -9.8%
- Cc1ccc2c(c1)n([O-])c1c([n+]2=O)CCCC1
  1.3%, 3.6%, 12.5%, ?, -18.8, 0.4%, -1.4%, -0.7%, 18.8, -5.1%
- O=c1nc(/C=C/c2ccc(O)c(O)c2)oc2ccccc12
  4.6%, -6.5%, ., ?, -10.1, 1.7%, -3.8%, -7.2%, -1.1, ?
- COc1ccc(C2C(C(=O)c3sc(C)nc3C)=C(O)C(=O)N2CCCn2ccnc2)cc1OC (stereo not drawn)
  2.3%, 3.4%, -4.2%, 13.7%, 16.9, -1.0%, -0.5%, 7.9%, 4.9, 16.0%
- O=C(Nc1cccnc1Oc1ncnc2cc(Cl)ccc12)c1ccc(F)cc1
  0.1%, -1.2%, ., -9.6%, 5.6, -1.9%, -1.2%, -7.1%, 5.4, -5.3%
- NNC(=O)C1CC1(c1ccccc1)c1ccccc1 (stereo not drawn)
  -6.1%, -3.6%, ., ., 9.5, 4.9%, 0.1%, -1.2%, 4.0, ?
- CC(C)(C)c1cc(C2=CSC3=NCCN23)cc(C(C)(C)C)c1O
  -1.2%, -1.5%, -13.9%, -0.6%, -11.3, -9.2%, 4.4%, -3.9%, 1.2, -3.2%
- Cc1ccc(NC(=O)c2ccco2)c([N+](=O)[O-])c1
  1.0%, -1.9%, 6.7%, ?, 20.6, 4.6%, 6.9%, -3.6%, 1.0, ?
- Nc1ncnc2c1ncn2C1OC(COP(=O)(O)O)C(O)C1O (stereo not drawn)
  1.4%, ?, -12.3%&8.7%, -10.5%, 21.2, -21.2%, ., 7.1%, -3.9, ?
- Cn1c(CC(=O)NC(C)(C)CO)c(Sc2ccccc2)c2ccccc21
  1.0%, -2.2%, -0.9%, -2.3%, -0.6, 7.2%, 0.9%, 2.4%, -1.5, 0.1%

# Continued, overlapping the part above by 4 compounds.
# Every second line gives: USP2a inh, ASM inhibitor, Menin MLL FP TR, MBNL1-CUG inh, TSHR antagonist, Mito fusion act, GALK inhibitor, Eya2 phos inh, hERG WT inh, Chronic BCR inh
- CC(C)(C)c1cc(C2=CSC3=NCCN23)cc(C(C)(C)C)c1O
  -1.2%, -1.5%, -13.9%, -0.6%, -11.3, -9.2%, 4.4%, -3.9%, 1.2, -3.2%
- Cc1ccc(NC(=O)c2ccco2)c([N+](=O)[O-])c1
  1.0%, -1.9%, 6.7%, ?, 20.6, 4.6%, 6.9%, -3.6%, 1.0, ?
- Nc1ncnc2c1ncn2C1OC(COP(=O)(O)O)C(O)C1O (stereo not drawn)
  1.4%, ?, -12.3%&8.7%, -10.5%, 21.2, -21.2%, ., 7.1%, -3.9, ?
- Cn1c(CC(=O)NC(C)(C)CO)c(Sc2ccccc2)c2ccccc21
  1.0%, -2.2%, -0.9%, -2.3%, -0.6, 7.2%, 0.9%, 2.4%, -1.5, 0.1%
- CCOc1ccc(C(=O)Nc2nnc(C3=COCCO3)o2)cc1
  -5.2%, -3.1%, ., -5.7%, 38.6, 23.8%, 7.5%, 23.7%, -19.4, -19.3%
- COc1ccc(-c2nc(-c3cccc([N+](=O)[O-])c3O)cc(=O)o2)cc1OC
  -1.1%, -0.8%, 5.5%, 6.4%, 1.2, 0.1%, -0.8%, -8.4%, 1.1, -17.0%
- C/C(=N\NC(=S)NCC(C)(C)C)c1cc(F)cc(F)c1O
  2.1%, 14.0%, ., -7.5%, 3.1, 2.6%, ., 3.8%, -4.1, -12.2%
- CC1=NNC(=O)c2ccccc2O1
  -0.3%, 19.1%, -0.9%, -3.5%, -2.9, -4.8%, -0.6%, 3.5%, 2.2, ?
- COC(=O)CC1C(=O)NCCN1Cc1cn(-c2ccc(C)cc2)nc1-c1cccc(C)c1 (stereo not drawn)
  0.0%, -1.4%, 6.3%, -8.0%, -5.2, 16.1%, -1.1%, -7.9%, -5.3, -8.9%
- O=C(OCC(=O)N1CCCCC1)c1cc(NS(=O)(=O)c2ccc(Cl)c([N+](=O)[O-])c2)ccc1O
  8.9%, -11.3%, ?, -19.1%, -0.2, -2.1%, -4.4%, -10.9%, 2.6, 2.2%
- C/C(=N/NC(=O)c1cc(C)[nH]n1)c1ccncc1
  0.3%, 3.2%, -9.2%, 3.0%, 1.4, -12.1%, 6.5%, -2.9%, -0.7, ?
- COc1cccc(CNC(=O)c2ccccc2-c2ccccc2)c1
  1.9%, 1.2%, ., -6.4%, 11.4, 7.4%, 7.2%, -2.1%, 12.2, 0.8%
- Cc1cc(Cl)ccc1Oc1ccccc1C(=O)CC#N
  -5.0%, -2.4%, ?, 2.7%, -14.8, 5.7%, -2.0%, -8.1%, 0.5, 20.7%
- O=C(COc1ccccc1)Nc1ncn[nH]1
  11.5%, 1.7%, ., -7.1%, 4.9, 27.2%, 0.7%, 3.7%, -11.0, 7.0%
- N/C(Cc1nc2ccccc2s1)=N\O
  -0.1%, 4.3%, ., 14.4%, 6.2, -4.9%, 0.5%, -4.1%, 12.1, -17.1%

# Two compounds drawn at random from the list so far:
# Every second line gives: USP2a inh, ASM inhibitor, Menin MLL FP TR, MBNL1-CUG inh, TSHR antagonist, Mito fusion act, GALK inhibitor, Eya2 phos inh, hERG WT inh, Chronic BCR inh
- CC1=NNC(=O)c2ccccc2O1
  -0.3%, 19.1%, -0.9%, -3.5%, -2.9, -4.8%, -0.6%, 3.5%, 2.2, ?
- Cc1cc(Cl)ccc1Oc1ccccc1C(=O)CC#N
  -5.0%, -2.4%, ?, 2.7%, -14.8, 5.7%, -2.0%, -8.1%, 0.5, 20.7%
